UBC13 polyUb: inhibitors of human UBC13 polyubiquitin chain formation; P61088; TR-FRET; inhibition, % at 20 µM; actives 0.47% (n = 330,000); AID 485273; in the data active = inhibition above about 45%, passing the limit was not always enough; inconclusive = no clear call, values can overlap the other calls
Target sequence (P61088 whole entry, looked up): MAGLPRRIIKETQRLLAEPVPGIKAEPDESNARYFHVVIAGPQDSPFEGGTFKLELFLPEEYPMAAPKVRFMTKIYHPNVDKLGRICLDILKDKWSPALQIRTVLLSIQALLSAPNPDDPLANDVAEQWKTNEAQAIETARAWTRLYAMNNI
SENP1 inh: SENP1 (human) catalytic domain inhibition; Q9P0U3; recombinant SENP1 catalytic domain, CyPet-SUMO1-YPet FRET cleavage; inhibition, % at 10 µM; actives 0.21% (n = 360,000); AID 624204;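 active = inhibition at least 30% at 10 µM, raw YFP signal under a set limit, fluorescence ratio 0.5 to 1.5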;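 also: 0% = enzyme with DMSO and 100% = no enzyme wells; some results filed as inactive read as strong as hits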
Target sequence (Q9P0U3 419-644 limits assumed): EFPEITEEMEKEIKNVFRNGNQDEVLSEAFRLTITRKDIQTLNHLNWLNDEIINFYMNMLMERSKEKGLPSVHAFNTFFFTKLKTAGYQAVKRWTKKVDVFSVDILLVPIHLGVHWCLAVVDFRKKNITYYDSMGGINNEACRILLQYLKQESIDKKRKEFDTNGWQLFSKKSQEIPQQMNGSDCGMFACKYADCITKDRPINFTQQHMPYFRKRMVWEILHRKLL
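Test system: recombinant human SENP1 catalytic domain, His6-tagged / Medium: pH 8 Tris buffer with EDTA, NaCl, BME, BSA, NP40, catalase / Also added: SUMO1 FRET substrate flanked by Cypet and Ypet, 25 nM / Times: 50 min reaction at room temperature / Signal: FRET, CFP and YFP emission / Control set: no-enzyme low control and enzyme-plus-DMSO high control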
Apaf-1 inh: blocks human Apaf-1 apoptosome activity | O14727 | reconstituted apoptosome caspase-3 activity, DEVD-Rh110 fluorescence | inhibition, % at 20 µM | actives 0.71% (n = 330,000); active = inhibition of at least 40% at 20 µM;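 also: plate controls were DMSO wells for no effect and DEVD-CHO caspase inhibitor wells for full effect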
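Material: reconstituted apoptosome with Apaf-1, cytochrome c, caspase-9, procaspase-3, dATP / Buffer or medium: pH 7.5 Hepes buffer with CHAPS, BSA, DTT / Also added: cytochrome c with DEVD-Rh110 / Schedule: compound with Apaf-1, dATP, procaspase-3 30 min, then 50 min reaction, room temperature / Technique: rhodamine 110 fluorescence at Ex 480/Em 540 nm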
APOBEC3G inh: APOBEC3G (human) deaminase inhibition. actives 0.28% (n = 330,000). recombinant A3G, ssDNA deamination FAM/TAMRA fluorescence. inhibition, % at 20 µM;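 active = inhibition of at least 40% at 20 µM, with no more than 30% in the related APOBEC3A deaminase screen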;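 also: plate controls were DMSO wells with A3G for no effect and wells lacking A3G enzyme for full effect; some compounds called inactive have numbers as strong as hits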
Target sequence (Q9HC16 whole entry, looked up): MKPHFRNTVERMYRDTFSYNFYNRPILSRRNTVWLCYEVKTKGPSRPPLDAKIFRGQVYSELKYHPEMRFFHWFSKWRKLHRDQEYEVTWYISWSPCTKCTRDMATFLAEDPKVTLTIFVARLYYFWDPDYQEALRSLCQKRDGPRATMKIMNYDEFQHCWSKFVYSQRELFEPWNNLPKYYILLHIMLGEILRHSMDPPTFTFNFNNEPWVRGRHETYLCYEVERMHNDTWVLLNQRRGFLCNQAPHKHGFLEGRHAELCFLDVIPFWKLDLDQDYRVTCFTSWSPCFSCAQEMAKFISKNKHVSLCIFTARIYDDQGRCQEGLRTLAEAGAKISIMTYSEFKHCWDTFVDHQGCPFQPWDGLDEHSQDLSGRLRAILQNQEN
* hit, by the source's call; u = inconclusive; x = no result given; & = joins results of further samples. A portion of the library (hit frequency here may not be typical).

Each structure is followed by: APOBEC3G inh | UBC13 polyUb | SENP1 inh | Apaf-1 inh
1: O=C(COC(=O)c1cccnc1Cl)c1ccc(F)cc1
→ -6.1 | -11.5 | 0.2 | 5.5
2: O=C(c1ccc(Br)cc1)c1coc2ccc(O)cc12
→ -3.9 | -2.2 | -2.7 | 18.8
3: CCc1sc(C(=O)Nc2ccc3c(c2)OCCO3)cc1Br
→ -6.8 | -4.6 | 0.6 | 14.3
4: Cc1cc(C)c(C(N)=O)c(Nc2cccc3ccccc23)n1
→ -6.2 | -93.7 | 17.2 | 96.2*
5: Cc1cc(C)cc(Nc2ncnc3nc[nH]c23)c1
→ -3.6 | 13.8 | -0.2 | -9.5
6: COc1ccc(/C=N/NC(=O)c2nonc2C)cc1
→ -6.9 | -13.3 | 1.6 | 9.2
7: O=C(Nc1ccc(Cl)cn1)Nc1ccccc1Cl
→ -3.6 | -20.3 | 2.1 | -0.7
8: Cc1ccc(C(=O)Nc2nc3ccc(Cl)cc3s2)o1
→ -4.5 | 4.9 | 2.1 | -1.3
9: COc1ccc(-c2cc3cc(F)ccc3cn2)cc1
→ -5.3 | 9.0 | -2.6 | 10.7
10: COc1ccccc1NC(=O)Nc1ccc2c(c1)nc(C)n2C
→ -1.8 | 15.5 | 0.5 | 2.6
11: O=C(Nc1ccc2c(c1)Cc1ccccc1-2)c1ccc(Br)o1
→ -7.0 | 7.8 | 1.3 | 6.5
12: COc1cc(O)oc1C=Nc1ccc(C(=O)O)cc1
→ -1.6 | 0.5 | 0.2 | 3.2
13: COc1ccc(CCNC(=O)CSc2ncc(C(=O)Nc3ccccc3)c(=O)n2C)cc1
→ -4.1 | 35.8 | 3.4 | 6.1
14: O=C(c1cccs1)N(C(=O)c1cccs1)c1ccc(Br)cn1
→ -4.9 | -5.8 | 4.4 | 13.7
15: Cn1nnnc1SCc1nc2scc(-c3ccccc3)c2c(=O)[nH]1
→ -4.0 | -1.9 | 2.8 | 4.7
16: CCOC(=O)c1sc(NC(=O)c2ccc(Br)o2)cc1C
→ -6.1 | 2.0 | 2.0 | 12.8
17: Cc1occc1-c1nc(-c2ccccn2)no1
→ -3.8 | 2.4 | -0.1 | 11.5
18: COC(=O)c1sccc1NC(=O)Nc1ccc(F)cc1
→ -1.2 | -6.7 | -0.3 | 5.8
19: O=C(COC(=O)c1ccccc1[N+](=O)[O-])c1ccc2c(c1)OCO2
→ -5.8 | -0.3 | 1.3 | 7.3
20: O=C(CSc1ccccc1)N1CCc2ccccc21
→ -1.3 | 3.8 | 0.0 | 8.8
21: CCOc1ccc2nc(SCC(=O)NCC3CCCO3)c(C#N)cc2c1 (stereo unspecified)
→ -5.5 | -5.5 | -6.3 | 9.6
22: Cc1ccc(-c2cn3cc([N+](=O)[O-])ccc3n2)cc1
→ -6.4 | 7.3 | -0.6 | 8.5
23: CCc1ccccc1NC(=O)c1ccc(-c2csc(C)n2)cc1
→ -3.2 | 2.5 | -1.5 | 7.0
24: O=C(Nc1ccc(-c2nc3ccccc3s2)c(O)c1)C1=COCCO1
→ -0.9 | 25.0 | -62.4 | -13.6
25: COc1ccc(-c2cc3ncccc3cn2)cc1
→ -3.7 | 9.0 | -0.8 | -4.5
26: COCCn1c(C)cc(C(=O)COC(=O)c2cccc(O)c2)c1C
→ -3.2 | 8.5 | 0.2 | -1.7
27: O=C(Nc1ccc(Br)cc1)Nc1ccccc1F
→ -3.8 | -0.8 | 0.4 | 5.9
28: Cc1cc(C(=O)COC(=O)c2ccc(F)cc2)c(C)n1C
→ -4.9 | 7.8 | -2.0 | -4.6
29: O=C(COC(=O)c1ccc(O)cc1O)c1ccc2c(c1)OCCO2
→ 1.1 | 5.9 | -0.7 | 3.3
30: Cc1c(CCO)c(=O)[nH]n1C(=O)c1ccc(F)cc1
→ -6.2 | -7.8 | 3.0 | 6.8
31: O=C(CSCc1ccccc1)N1CCc2ccccc21
→ -0.5 | 5.8 | -4.0 | 8.5
32: Cc1cccc(-c2nnc(-c3ccc(N)cc3)o2)c1
→ -3.1 | 9.4 | 0.6 | 6.3
33: c1ccc(-c2ccc3ccccc3n2)cc1
→ 20.0 | 4.1 | -1.5 | 10.1
34: COc1cc(OC)cc(-c2cc3ccccc3c(=O)o2)c1
→ 6.6 | u | -0.6 | 1.6
35: COc1ccc(-c2noc(-c3ccc(C)cc3)n2)cc1
→ -2.1 | -8.2 | -1.0 | -2.0
36: Cc1cc(C)cc(NC(=O)Nc2ccc(S(=O)(=O)Nc3cc(C)on3)cc2)c1
→ -3.3 | -5.0 | 1.2 | 8.1
37: COC(=O)c1sccc1NC(=O)/C=C\c1ccc(Cl)cc1Cl
→ x | x | 2.8 | x
38: Cc1nn(-c2ccccc2)c(C)c1C(=O)OCC(=O)Nc1ccccc1F
→ -4.0 | 2.8 | -0.9 | -9.2
39: O=C(/C=C/Nc1cccc([N+](=O)[O-])c1)c1ccco1
→ 2.0 | -6.0 | -1.5 | -3.0
40: Nc1nc2ccccc2n1/N=C/c1ccc2c(c1)OCO2
→ -6.7 | 4.2 | 1.0 | 10.3
41: Cc1nc(-c2ccc(C(=O)Nc3ccccc3F)cc2)cs1
→ -8.0 | 4.6 | 0.5 | -18.8
42: CCC(C)(C)n1nnnc1CN1CCN(c2nc3cc(OC)ccc3cc2C#N)CC1
→ -5.0 | 24.5 | -15.5 | 13.7
43: COc1cccc(NC(=O)Nc2cc(C)ccc2F)c1
→ -0.6 | -1.0 | 0.9 | 0.2
44: COC(=O)c1sccc1NC(=O)Nc1ccc(F)cc1F
→ -0.6 | 2.8 | 0.2 | 10.9
45: COc1ccccc1CNC(=O)CSc1ncc(C(=O)Nc2ccccc2)c(=O)n1C
→ -11.1 | 65.0* | 1.0 | 4.1
46: Cc1ccc2nc(NC(=O)c3ccc4c(c3)OCO4)sc2c1
→ -1.1 | 8.4 | 0.8 | -2.0
47: COc1ccccc1N1C(=O)c2ccc(C(=O)Nc3ccc(F)cc3)cc2C1=O
→ -9.6 | -0.7 | 1.2 | 5.2
48: COCCCN1C(=O)c2ccc(C(=O)Nc3cccc(OC)c3)cc2C1=O
→ -2.3 | -0.3 | 3.0 | -6.3
49: Cc1nc(NC(=O)c2ccc(Br)o2)ccc1Br
→ -3.5 | 3.7 | -0.1 | 12.4
50: O=C(CSc1nc2ccccc2s1)c1ccc(O)cc1O
→ -6.6 | -1.2 | -0.4 | 5.6
51: O=C(/C=C(O)/C=C/c1ccc(O)cc1)/C=C/c1ccc(O)cc1
→ -16.7 | -64.0 | -19.2 | -1.3
52: COc1cc(O)oc1C=Nc1ccc(C(F)(F)F)cc1
→ -5.0 | -0.5 | -0.6 | 14.4
53: Cc1nn(-c2ccccc2)c(C)c1C(=O)OCC(=O)Nc1ccccc1C(F)(F)F
→ -4.2 | -7.8 | 2.2 | 5.6
54: CCOc1ccc(-c2cccc(NS(=O)(=O)c3cc([N+](=O)[O-])ccc3C)c2)nn1
→ -5.6 | -2.9 | 2.8 | 14.2
55: Cc1cccc(C(=O)OCC(=O)c2ccc3c(c2)OCO3)c1O
→ -2.1 | 6.0 | 2.0 | 3.8
56: CSc1nc2ccc(NC(=O)COc3ccccc3F)cc2s1
→ -4.4 | 8.8 | -0.6 | -0.1
57: Cc1nc(-c2ccc(NC(=O)c3ccco3)cc2)cs1
→ -9.9 | -9.2 | 1.6 | -1.1
58: COc1ccc2oc3ccccc3c(=O)c2c1
→ 21.2 | 13.6 | -19.7 | 7.8
59: CC(=O)NCCNC(=O)c1ccc(CSc2nc3ccccc3s2)cc1
→ -4.1 | -3.7 | 0.6 | 1.6
60: Cn1c(-c2ccccc2F)cc2onc(-c3ccccc3)c2c1=O
→ -11.5 | 9.7 | 2.2 | 9.4

Profiles from above. Order of screens: APOBEC3G inh, UBC13 polyUb, SENP1 inh, Apaf-1 inh
Shown for CC(=O)NCCNC(=O)c1ccc(CSc2nc3ccccc3s2)cc1 : -4.1, -3.7, 0.6, 1.6
Shown for Cc1cccc(C(=O)OCC(=O)c2ccc3c(c2)OCO3)c1O : -2.1, 6.0, 2.0, 3.8
Shown for CCC(C)(C)n1nnnc1CN1CCN(c2nc3cc(OC)ccc3cc2C#N)CC1 : -5.0, 24.5, -15.5, 13.7

(next part)
Each structure is followed by: APOBEC3G inh | UBC13 polyUb | SENP1 inh | Apaf-1 inh
61: Nc1nonc1C(=O)N/N=C\c1cc2c(cc1Cl)OCO2
→ 19.8 | -0.4 | 2.1 | 12.6
62: Cc1nnc(SCC2=C(C(=O)O)N3C(=O)[C@@H](NC(=O)Cn4cnnn4)[C@H]3SC2)s1
→ -5.3&-3.3 | -4.5&2.1 | -1.1&-1.8 | -12.9&-1.6
63: Cc1c(NC(=O)c2ccc(Br)o2)cccc1C(=O)O
→ -6.5 | 17.6 | 3.2 | -17.3
64: CCCC(=O)Nc1ccc(Cl)c(-c2nc3ncccc3o2)c1
→ -2.7 | -0.3 | 0.3 | 11.7
65: O=c1oc2ccccc2cc1-c1cn2ccccc2n1
→ -6.3 | -8.2 | -65.3 | 4.3
66: COc1ccc(C)cc1NC(=O)Nc1ccc2c(c1)CCC2
→ -9.7 | -4.1 | 1.8 | 14.9
67: CCOc1ccc(NC(=O)Nc2cc(C)ccc2F)cc1
→ -8.0 | -0.1 | 1.0 | 3.0
68: Cc1cc(C(=O)COC(=O)c2n[nH]c3ccccc23)c(C)n1C
→ 0.0 | 7.3 | -5.9 | 14.4
69: COc1ccc(-c2nc3ccccc3o2)cc1OC
→ 2.6 | -1.2 | 2.1 | 10.7
70: COc1ccc(Cl)cc1C(=O)OCC(=O)NC(=O)c1cccn1C
→ -6.4 | 6.9 | -0.6 | -1.1
71: COC(=O)c1sccc1NC(=O)CCC1CCCC1
→ -0.9 | 4.1 | -0.7 | 3.3
72: O=Cc1c(-c2ccc(Cl)cc2)oc2ccc(O)cc12
→ 7.3 | 6.2 | 1.5 | -13.4
73: O=C(Nc1ccccn1)c1cc2cc([N+](=O)[O-])ccc2s1
→ -0.9 | -19.6 | 0.3 | -7.5
74: COC(=O)c1sccc1NC(=O)Nc1ccccc1Cl
→ -2.4 | -9.8 | -0.8 | -0.7
75: COC(=O)c1cccc(NC(=O)Nc2ccccc2OC)c1
→ -7.7 | 3.5 | -2.0 | -13.1
76: O=[N+]([O-])c1cccc(-c2cn3ccccc3n2)c1
→ -2.4 | -1.6 | -0.3 | 3.2
77: O=C(Nc1ccncc1)Nc1ccccc1Cl
→ -6.9 | -0.9 | -1.8 | 7.7
78: CC(=O)c1cccc(NC(=O)CSc2ncc(C(=O)Nc3ccccc3)c(=O)n2C)c1
→ -9.7 | 72.6* | -2.6 | 7.3
79: O=C(COc1ccc(F)cc1Br)N1CCc2ccccc21
→ -3.4 | -1.8 | 0.4 | 10.8
80: O=C(Nc1ccccc1)c1nc2ccccc2s1
→ 4.4 | -10.4 | 1.2 | 15.3

Filtered by structure, the entries above with a thiophene ring, fused or not (10)
Each structure is followed by: APOBEC3G inh | UBC13 polyUb | SENP1 inh | Apaf-1 inh
3: CCc1sc(C(=O)Nc2ccc3c(c2)OCCO3)cc1Br
→ -6.8 | -4.6 | 0.6 | 14.3
14: O=C(c1cccs1)N(C(=O)c1cccs1)c1ccc(Br)cn1
→ -4.9 | -5.8 | 4.4 | 13.7
15: Cn1nnnc1SCc1nc2scc(-c3ccccc3)c2c(=O)[nH]1
→ -4.0 | -1.9 | 2.8 | 4.7
16: CCOC(=O)c1sc(NC(=O)c2ccc(Br)o2)cc1C
→ -6.1 | 2.0 | 2.0 | 12.8
18: COC(=O)c1sccc1NC(=O)Nc1ccc(F)cc1
→ -1.2 | -6.7 | -0.3 | 5.8
37: COC(=O)c1sccc1NC(=O)/C=C\c1ccc(Cl)cc1Cl
→ x | x | 2.8 | x
44: COC(=O)c1sccc1NC(=O)Nc1ccc(F)cc1F
→ -0.6 | 2.8 | 0.2 | 10.9
71: COC(=O)c1sccc1NC(=O)CCC1CCCC1
→ -0.9 | 4.1 | -0.7 | 3.3
73: O=C(Nc1ccccn1)c1cc2cc([N+](=O)[O-])ccc2s1
→ -0.9 | -19.6 | 0.3 | -7.5
74: COC(=O)c1sccc1NC(=O)Nc1ccccc1Cl
→ -2.4 | -9.8 | -0.8 | -0.7

High-throughput results (PubChem)
